# AID504770 – growth inhibitors of E. coli YBA685 in a screen for V. cholerae RctB (chromosome II replication) inhibitors. E. coli YBA685 rctB-dependent plasmid, OD600 growth, 3 h; stronger effect = lower value. z-score (test concentration not listed). actives 0.27% (n = 130,000). AID 504770;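 active means z-score under -2 on both plates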;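 further: wells of about 30 µL received 100 nL stock; score is relative to mean and SD of the test wells; the first replicate is given; strong numbers were not always called active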
# CapD inh – blocks the Bacillus anthracis CapD enzyme. AID 492967. actives 0.23% (n = 140,000). z-score (no concentration beside the values). purified CapD enzyme, fluorescence intensity read-out; stronger effect = lower value; some hits fall short of the stated cut;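 active means z-score under -4 in either of two replicates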;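 further: stock transfer was 100 nL into about 40 µL; score is relative to mean and spread of the plate; one replicate is shown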
# Numbers without * were called inactive; i = inactive; / = not tested or not shown; & = joins results of further samples.
Structure	AID504770	CapD inh
CC[C@@H]1[C@@H](O)N2C3C[C@H]1C1C(O)[C@]4(C[C@@H]12)c1ccccc1N(C)[C@@H]34 (stereo not given in full)	/	0.125
COc1ccc(CC(=O)Nc2ccc3nc4n(c(=O)c3c2)CCCC4)cc1	-0.05	0.355
COc1cc(CN(Cc2ccco2)S(=O)(=O)c2ccc(NC(C)=O)cc2)cc2c1OCO2	/	0.27
O=C1Nc2ccc(S(=O)(=O)N(CCO)CCO)c3cccc1c23	1.65	-0.175
Cn1c(N)c(C(=S)NC(=O)C2CC2)c(=O)n(C)c1=O	1.55	/
NC(=O)c1noc(C(=O)c2ccccc2)c1N	-0.75	9.09
CC1CCN(C(=S)SCC(=O)n2c3c(c4ccccc42)CCCC3)CC1	0.15	-0.065
CCS(=O)c1ccccc1C(=O)NCc1ccc(C)cc1 (stereo not given)	-0.75	/
CC(=O)Nc1ccc2c(c1)CCCN2C(=O)c1cccs1	-0.35	/
O=C(Cc1cn2ccsc2n1)Nc1ccccc1OC(F)F	2.05	/
c1ccc(CSC2=NCCCN2C2CCCCC2)cc1	0.65	0.895
CCNc1nc(OC)nc(N2CCC(Cc3ccccc3)CC2)n1	1.65	-0.065
CC(=O)Nc1ccc(N2C(=O)/C(=C/c3ccc([N+](=O)[O-])cc3)C=C2c2ccccc2)cc1	/	-0.175
O=CC12c3ccccc3C(c3ccccc31)C1C(=O)N(c3cccc4ccccc34)C(=O)C12 (stereo not given)	/	-0.24
COc1ccc2c(c1OC)C(=O)O[C@H]2[C@@H]1c2ccccc2CCN1C	/	-0.09
CC(=O)N(c1ccccc1)C1CC(C)N(C(=O)c2ccc([N+](=O)[O-])cc2)c2ccccc21 (stereo not given)	/	-0.455
O=C(c1ccc(N2CCCc3ccccc32)s1)n1ccnc1	0.1	-1.48
O=C(COC(=O)c1ccc(N2C(=O)c3ccccc3C2=O)cc1)Nc1ccc2[nH]c(=O)[nH]c2c1	0.3	/
Cc1ccc2[nH]c(=O)c3cc(C(=O)NCC4CCCO4)sc3c2c1 (stereo not given)	0.75	25.5
Nc1ccccc1-c1nnc2n1CCCCC2	/	1.5

# Structural class: the compounds so far containing a nitro group on carbon (two)
Structure	AID504770	CapD inh
CC(=O)Nc1ccc(N2C(=O)/C(=C/c3ccc([N+](=O)[O-])cc3)C=C2c2ccccc2)cc1	/	-0.175
CC(=O)N(c1ccccc1)C1CC(C)N(C(=O)c2ccc([N+](=O)[O-])cc2)c2ccccc21 (stereo not given)	/	-0.455

# The listing continues.
Structure	AID504770	CapD inh
CSc1nc2ccc(S(=O)(=O)N(C)C)cc2s1	0	0.72
CC1Cc2ccccc2N1C(=O)Cn1c(=O)oc2cc(S(=O)(=O)N3CCCC3)ccc21 (stereo not given)	-1.65	-0.485
CN(C)/C=N/S(=O)(=O)c1cc(Cl)c(Oc2ccc([N+](=O)[O-])cc2)c(Cl)c1	/	0.135
CCc1ccc(NC(=O)CSc2nc3ccccc3[nH]2)cc1	-0.7	0.18
CCOC(=O)CSc1nc2c(sc(=S)n2-c2cccc(OC)c2)c2nc3ccccc3n12	/	-0.195
O=S(=O)(CCN1CCN(S(=O)(=O)c2ccccc2C(F)(F)F)CC1)c1ccc(Br)cc1	2.2	/
Cc1ccc(F)cc1S(=O)(=O)N(C)Cc1cccnc1	/	-1.27
Cc1ccc(Nc2cc(=O)[nH]c(=O)[nH]2)cc1Cl	-0.05	1.06
COc1cc(N=Cc2cc(Br)cc(OC)c2O)cc(OC)c1	/	-0.02
CCOC(=O)COc1nc(C)cc(COC)c1C#N	/	82.9
Cc1ccccc1CSc1nc2ccsc2c(=O)n1Cc1ccccc1	0.6	-0.365
CCOC(=O)N1CCN(Cn2nc(COc3ccc(C4CCCCC4)cc3)n(C)c2=S)CC1	0.6	0.14
N#C/C(=C\c1ccccc1)c1cccc(Cl)c1	-0.65	-0.75
CCC(=O)c1c(O)n(C)c(=O)n(C)c1=O	-0.9	0.105
CC1S/C(=N\N=C2CCC(C(C)(C)C)CC2)NC1=O (stereo not given)	1.3	-0.74
COc1ccc(-c2cc(C(=O)Nc3cc(Cl)cc(Cl)c3)on2)cc1	/	-0.29
Cc1cc(=O)oc2c1c(C(F)(F)F)nn2-c1ccc(Cl)cc1	/	-0.3
CC(=O)N1CCC(N(C(=O)c2cccs2)c2ccc3[nH]c(C(C)(C)C)cc3c2)CC1	/	-0.315
O=C(c1ccc(Cl)cc1)N1CCc2c([nH]c3ccccc23)C1c1ccc2c(c1)OCO2 (stereo not given)	/	0.16
COc1ccc2cc(Br)ccc2c1CC(=O)O	0.6	1.48
O=C(O)CC(NC(=O)C12CC3CC(CC(C3)C1)C2)c1ccc(Cl)cc1 (stereo not given)	-0.65	0.415
O=C(NN1C(=O)c2ccccc2C1=O)c1ccccc1	-0.6	0.09
Nc1cccc(C(=O)Nc2cccc(C(F)(F)F)c2)c1	-0.35	19.7
Cc1ccc(S(=O)(=O)NNC(=S)NCc2ccccc2)cc1	/	0.115
Cc1cc(C)c(NC(=O)CSC2=C(C#N)C(c3cccs3)C3=C(CCCC3=O)N2)c(C)c1 (stereo not given)	/	6.93
Oc1ccc(CN2CCOCC2)c2cccnc12	-0.4	0.235
CC(=O)Oc1ccc(C(=O)Nc2cc(Cl)ccc2OC(C)=O)cc1	0.85	i
CC(Sc1nnc(-c2ccc(F)cc2)n1Cc1ccccc1)C(=O)NCc1ccco1 (stereo not given)	1.2	/
CCc1c(C)c(C#N)c2nc3ccccc3n2c1N(C)C	/	-0.205
Cc1ccc(CN2C(=O)N/C(=C/c3ccc4c(c3)n(C)c(=O)n4C)C2=O)cc1	0.7	9.18
O=C(COc1ccc(Cl)cc1)OC1CCOC1=O (stereo not given)	-0.55	/
O=C(O)c1ccccc1S(=O)(=O)NCC(O)COC1CCCCC1 (stereo not given)	-0.35	/
COc1cc2c(cc1OC)CN(CC(=O)NC(=O)NCc1ccccc1)CC2	-1.95	/
COc1ccc(N=C(CCCN2C(=O)c3ccccc3C2=O)C2=C(O)CC(C)(C)CC2=O)cc1	-0.6	79.9
O=c1c(C=NCc2ccc3c(c2)OCO3)c(CSc2ccc(Cl)cc2)[nH]n1-c1nc2ccccc2s1	/	-0.8
COc1cccc(OC)c1CNC(=O)CNC(=O)C(c1ccccc1)c1ccccc1	/	-0.005
O=C(CC1SC(=Nc2ccccc2)N(c2ccccc2)C1=O)Nc1cccc(Cl)c1 (stereo not given)	/	0.705
COc1ccc(C2=Nc3ccccc3NC(c3ccc([N+](=O)[O-])cc3)C2)cc1 (stereo not given)	/	0.585
N#Cc1cc(C#N)c(SCC(N)=O)nc1N	-1	/
CCCCCn1c(=O)[nH]c2cc(C(=O)NCCCC)ccc2c1=O	-0.6	3.65
Cc1cccc(N2CCN(S(=O)(=O)c3cnc[nH]3)CC2C)c1 (stereo not given)	1.65	-0.215
C1CCN2C[C@@H]3CC(CN4CCCC[C@@H]34)[C@H]2C1	/	68
COC(=O)N(C)CCCC1(C)C(=O)N(C)c2ccc(O)cc21 (stereo not given)	0.1	-0.03
Cn1c(=O)[nH]c(=O)c2c(C(F)(F)F)cc(-c3ccco3)nc21	0.1	/
Cc1ccc(N2CCN(C(=O)C3(C)CCC(C(=O)O)C3(C)C)CC2)c(C)c1 (stereo not given)	/	0.39
COc1ccccc1C1CC(=O)NC(SCC(=O)N2CCCC2)=C1C#N (stereo not given)	-0.1	-0.155
CCOC(=O)N1CCN(CCC(=O)c2ccc(Br)cc2)CC1	1.5	-1.14
COc1ccc(C(=O)N/N=C/c2ccccn2)cc1OC	/	-0.89
COc1ccc(-c2csc(CC#N)n2)cc1OC	0.25	/
CSc1nc2ccc(NC(=O)c3c(C)nn(-c4ccccc4)c3Cl)cc2s1	-0.45	/

# The list continues.
Structure	AID504770	CapD inh
O=C(c1nn2c(C(F)(F)F)cc(-c3ccco3)nc2c1Br)N1CCN(Cc2ccccc2)CC1	/	-0.02
COc1ccccc1N1CCN(C(=O)Cn2c(=O)c3ccccc3n(C)c2=O)CC1	/	0.055
CCOC(=O)CC1=C(C(=O)OCC)C2(C(=O)N(CC(=O)OC)c3ccccc32)C(C(=O)OCC)=C(N)O1 (stereo not given)	0.2	0.245
NCCCc1nc2cc3ccccc3cc2[nH]1	-0.35	-0.83
CCOC(=O)C1=C(NC2CCCCC2)C(=O)N(c2ccccc2)C1	-0.6	22.4
O=C(c1ccc2c(=O)n(CCc3ccccc3)c(SCc3cccc([N+](=O)[O-])c3)nc2c1)N1CCOCC1	/	-0.81
NC(=O)C1CCN(C(=O)N2c3ccccc3Sc3ccccc32)CC1	-0.8	/
O=C(NCCc1c[nH]c2ccc(Cl)cc12)OCc1ccccc1SC(F)(F)F	/	0.21
NNC(=O)c1cc(COc2cc(Cl)cc(Cl)c2)on1	0	0.9
CCc1ccc(NCc2cn(-c3ccccc3)nc2-c2cccs2)cc1	0.4	2.54

# Complete entries from above. Screens in order: AID504770, CapD inh
# Profile of COc1cc(CN(Cc2ccco2)S(=O)(=O)c2ccc(NC(C)=O)cc2)cc2c1OCO2 = /, 0.27
# Profile of CCOC(=O)C1=C(NC2CCCCC2)C(=O)N(c2ccccc2)C1 = -0.6, 22.4
# Profile of COc1ccc2c(c1OC)C(=O)O[C@H]2[C@@H]1c2ccccc2CCN1C = /, -0.09
# Profile of CCOC(=O)CC1=C(C(=O)OCC)C2(C(=O)N(CC(=O)OC)c3ccccc32)C(C(=O)OCC)=C(N)O1 (stereo not given) = 0.2, 0.245
# Profile of CC(=O)Nc1ccc(N2C(=O)/C(=C/c3ccc([N+](=O)[O-])cc3)C=C2c2ccccc2)cc1 = /, -0.175

# Carrying on.
Structure	AID504770	CapD inh
Cc1cc(C(=O)COC(=O)Cc2coc3cc(O)ccc23)c(C)n1C	-0.55	/
O=C(COc1ncnc2sccc12)c1ccc(Cl)s1	1.35	/
NC(=O)/C(=N\O)c1nc(-c2ccc(Cl)cc2)cs1	0	-0.275
CC(CCc1ccccc1)NCC(O)c1ccc(O)c(C(N)=O)c1 (stereo not given)	-0.15	-0.225&-0.175
Cc1nc2ccc(S(=O)(=O)NC(CC(C)C)C(=O)N3CCn4c3nc3ccccc34)cc2s1 (stereo not given)	0.75	0.14
O=C(Nc1ccc(N2CCOCC2)c2nonc12)c1cccs1	1.55	-0.05
COc1cc(/C=c2/sc3nc4cc(C)c(C)cc4n3c2=O)cc(OC)c1OC(C)=O	/	-0.02
COc1cc(C2C=C(Nc3ccc(C)cc3)C(=O)N2c2ccc(C)cc2)ccc1O (stereo not given)	/	1.65
CC(Sc1nnc(CN2CCCC2)n1Cc1ccccc1)C(=O)c1ccc(NS(C)(=O)=O)cc1 (stereo not given)	0.1	/
O=C(c1cccc([N+](=O)[O-])c1)C1CC2(NC1c1ccccc1)C(=O)Nc1ccccc12 (stereo not given)	/	0.705
COC(=O)c1cccc(CSc2ncccc2C(=O)O)c1	-0.55	0.185
C#CCNC(=O)c1cc(=O)[nH]c2ccccc12	0.55	/
Cn1ccnc1C(=O)c1cccc(S(=O)(=O)N2CCCc3ccccc32)c1	-1.15	/
Cc1ccc(Cl)cc1N1CCN(C(=O)Cn2ncc3c(=O)oc4ccccc4c32)CC1	-0.95	0.36
CC1=C(C(=O)Nc2ccccn2)C(c2ccc3c(c2)OCO3)n2ncnc2N1 (stereo not given)	/	-0.52
N#Cc1c(F)cccc1N1CCC(C(N)=O)CC1	0.9	61.9
O=C(NCCSCc1ccccc1)c1ccc2c(=O)n(Cc3ccc4c(c3)OCO4)c(=S)[nH]c2c1	/	-0.78
CCN1CCN(Cc2cc(Cl)c3cccnc3c2O)CC1	0.15	/
Clc1ccc(C=Nc2ccc3c(c2)OCCOCCOCCO3)c(Cl)c1	-0.5	-1.02
O=C(CSC1=NCCS1)Nc1ccc(Cl)cc1C(F)(F)F	-0.1	-0.2
CCOC(=O)N1CCC(NC(c2ccc(F)cc2)c2nnc(-c3ccccc3)o2)CC1 (stereo not given)	0.5	-0.06
O=C(CN(CCc1ccc2c(c1)OCCO2)CC(=O)NC1CC1)NC1CC1	0.6	/
O=S(=O)(NC1CCCCC1)c1ccccc1	-0.75	0
c1ccc(C2=NP(N3CCOCC3)(N3CCOCC3)=NC(N3CCOCC3)=N2)cc1	-0.35	/
O=C(O)C1CCN(C(=O)CSc2ncnc3ccccc23)CC1	-0.1	/
CCc1c(C(=O)c2ccc(OC)cc2)oc2ccc3c(C)cc(=O)oc3c12	/	-0.235
CC1CCc2c(sc3ncnc(NCCN4CCOCC4)c23)C1 (stereo not given)	-0.55	-0.365
CC1(C)C(=O)NCCN1C(=O)CSc1nccc(-c2ccccc2)n1	0.55	/
CCN(CC)c1nc2n(c(=S)n1)CCS2	0.9	/
CC(C(=O)N1c2ccccc2Sc2ccc(C(F)(F)F)cc21)N1C(=O)c2ccccc2C1=O (stereo not given)	/	-0.14
CC(C)CC(=O)Nc1c(C(=O)Nc2cccc(F)c2)oc2ccccc12	1.95	/
CCc1cc2c(cc3c(=O)n(CC(=O)NCCN4CCOCC4)ncn32)s1	0.85	0.22
Cc1noc(C)c1C(=O)n1ccc(-c2cccs2)n1	0.35	1.13
O=C(O)/C=C/C(=O)NC1CCN(Cc2ccccc2)CC1	-0.45	-1.11
Cc1nc2ccc(S(=O)(=O)N(C)CC(=O)NCc3ccc4c(c3)OCO4)cc2s1	3.15	-1.08
CC(=O)Oc1ccc(C2C3=C(CC(C)(C)CC3=O)Nc3ccc4ccccc4c32)cc1 (stereo not given)	/	16.2
NC1=NC(=O)C(CC(=O)c2ccc(Cl)cc2)S1 (stereo not given)	-0.15	-0.755

# Screening results from PubChem.
